From PubChem
LANA-H2A inh – blocks KSHV LANA binding to histone H2A/H2B; Q9QR71; cell-free LANA-H2A/H2B peptide, fluorescence polarization; inhibition, % (test concentration not listed); 320,000 compounds, 0.6% hits; in the data active = inhibition mostly above about 10%, no sharp cut-off; inactive = mostly below about 6.7%;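 also: stock transfer was 7.5 nL into about 10 µL; 0% = median of vehicle wells and 100% = median of positive control wells; one replicate is shown; the record names a cut of 25% in any replicate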
Target sequence (Q9QR71 whole entry, looked up): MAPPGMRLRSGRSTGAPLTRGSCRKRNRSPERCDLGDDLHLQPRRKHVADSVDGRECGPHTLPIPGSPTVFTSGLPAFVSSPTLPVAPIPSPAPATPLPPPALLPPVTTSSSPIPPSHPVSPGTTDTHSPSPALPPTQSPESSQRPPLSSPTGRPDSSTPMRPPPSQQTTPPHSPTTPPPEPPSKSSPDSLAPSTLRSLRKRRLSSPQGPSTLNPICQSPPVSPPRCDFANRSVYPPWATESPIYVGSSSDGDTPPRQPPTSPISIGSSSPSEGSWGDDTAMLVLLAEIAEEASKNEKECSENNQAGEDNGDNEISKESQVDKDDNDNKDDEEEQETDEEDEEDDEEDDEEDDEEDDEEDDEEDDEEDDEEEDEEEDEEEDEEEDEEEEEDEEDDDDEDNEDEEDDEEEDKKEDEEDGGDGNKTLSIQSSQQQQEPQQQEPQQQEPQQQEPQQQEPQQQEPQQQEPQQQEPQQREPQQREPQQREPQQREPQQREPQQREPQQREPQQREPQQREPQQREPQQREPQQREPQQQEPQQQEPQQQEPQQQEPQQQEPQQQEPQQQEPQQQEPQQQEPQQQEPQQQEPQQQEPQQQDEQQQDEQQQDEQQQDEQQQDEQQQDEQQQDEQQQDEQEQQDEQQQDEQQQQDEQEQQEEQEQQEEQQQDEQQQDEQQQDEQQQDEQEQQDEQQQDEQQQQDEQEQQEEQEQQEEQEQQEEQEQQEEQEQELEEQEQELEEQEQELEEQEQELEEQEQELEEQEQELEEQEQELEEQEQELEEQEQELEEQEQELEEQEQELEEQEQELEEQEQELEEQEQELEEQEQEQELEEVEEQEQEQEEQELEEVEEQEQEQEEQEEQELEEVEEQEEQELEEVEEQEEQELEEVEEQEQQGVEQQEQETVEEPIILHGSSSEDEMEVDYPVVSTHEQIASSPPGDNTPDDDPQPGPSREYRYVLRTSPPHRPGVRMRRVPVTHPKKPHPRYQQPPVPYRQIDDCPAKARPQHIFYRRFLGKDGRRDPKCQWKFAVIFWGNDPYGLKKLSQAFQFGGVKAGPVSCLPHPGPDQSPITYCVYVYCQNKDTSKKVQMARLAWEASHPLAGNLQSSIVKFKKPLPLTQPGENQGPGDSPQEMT
Beta cell apopt – beta cell apoptosis inhibition; 300,000 compounds, 0.8% hits; INS-1E cytokine-induced death, ATP luminescence, 48 h; percent of positive-control rescue, neutral wells zero; AID 435005; protection from apoptosis, % (concentration not given with the values);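 active = all replicates at 75% or more, or half of them and the mean; inconclusive = half reach 75% but not the mean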;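 also: 0% = cytokine-treated negative control wells and 100% = positive control rescue; higher means more ATP so stronger rescue from cytokine killing; wells of about 40 µL received 100 nL stock; the first replicate is given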
RanGTP-Imp inh – inhibitors of RanGTP-importin-beta interaction, primary screen, biochemical, FRET, CFP-Ran, YFP-importin-beta, homogeneous | cell-free CFP-Ran/YFP-importin-beta FRET ratio | inhibition, % (test concentration not listed) | 300,000 compounds, 1.1% hits | AID 2216;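 active = most replicates above 15%; inconclusive = exactly half above 15%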;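 also: 0% = DMSO wells and 100% = Ran loaded with GDP instead of GTP; wells of about 40 µL received 100 nL stock; the first replicate is given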
MLL AF4-AF9 inh – inhibitors of human MLL-AF4/AF9 interaction; P42568; inhibition, % at 10 µM; AID 651704; AlphaScreen, biotin-AF4 peptide binding to FLAG-AF9; 350,000 compounds, 0.47% hits;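 active = every replicate reaching a set inhibition limit, whatever the replicate mean, cut at about 25% in these data; inconclusive = mean inhibition reaches that limit but some replicates miss it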;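 also: 0% = plate neutral control median and 100% = total signal loss; the record names both 10 and 1 µM as test concentration; the first replicate is given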
Bfl-1 A1 inh – inhibitors of the anti-apoptotic protein A1, read as caspase activation; caspase activation, % (concentration not given with the values); MEF A1-2A-BIM cells, Caspase-Glo 3/7 luminescence, 3 h; percent of clofoctol response, vehicle zero; 330,000 compounds, 0.066% hits;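 active = over half of replicate activation scores above 10%, or exactly half above 10 with the replicate mean above 10; inconclusive = replicate mean below 10 yet half the replicates above 10; inactive = over half of replicates below 10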;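 also: wells of about 30 µL received 50 nL stock; many hits fall short of the cut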
T cruzi inh – blocks replication of Trypanosoma cruzi | AID 1885 | T. cruzi beta-gal in NIH3T3, luminescence, 90 h | 300,000 compounds, 1.4% hits | inhibition, % (no concentration beside the values);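 active = mean inhibition across valid replicates above about 55%, limit read from the data; inconclusive = mean below that limit but half or more replicates reach it; inactive = mean below it, under half of replicates reach it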;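 also: signal also drops with host cell toxicity which is not excluded here; 0% = plate median of DMSO wells and 100% = zero luminescence signal; higher percent means less beta-gal luminescence so fewer parasites; stock transfer was 50 nL into about 50 µL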
Vif A3G – inhibitors of Vif binding to APOBEC3G peptide, primary screen, biochemical, TR-FRET, GST-Vif 1-94, biotin-A3G peptide, dose response retest (AID 1117319). TR-FRET GST-Vif / biotin-A3G peptide binding; higher % means a stronger effect; test concentration not given here; strong numbers were not always called active. inhibition, %, or IC50 in µM where a hit was titrated. 260,000 compounds, 0.57% hits;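 active = above the screen mean plus three standard deviations and confirmed in dose response; inconclusive = results disagree or hit not tested in dose response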;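 also: Vif residues 1-94 fused to GST binding biotinylated APOBEC3G peptide 110-148; 0% = full assay without inhibitor and 100% = GST in place of GST-Vif; retest series ran down from 100 µM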
Calb FLC – affects C. albicans growth with fluconazole. growth inhibition, % (concentration not given with the values). C. albicans CaCi-2 (fluconazole-resistant clinical isolate) + fluconazole, Alamar Blue growth, 48 h. AID 1979. 300,000 compounds, 0.57% hits;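 active = most replicates above 75%; inconclusive = exactly half above 75%; inactive = most below 75%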;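 also: all wells also contain fluconazole at 8 µg/ml as a sub-toxic cotreatment; 0% = median of DMSO wells and 100% = median of geldanamycin control wells; wells of about 8 µL received 7.5 nL stock; the first replicate is given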
* hit, by the source's call; ? = inconclusive; / = no result given; & = joins results of further samples.

SMILES | LANA-H2A inh | Beta cell apopt | RanGTP-Imp inh | MLL AF4-AF9 inh | Bfl-1 A1 inh | T cruzi inh | Vif A3G | Calb FLC
CSc1ncccc1C(=O)NCC(=O)Nc1ccc(F)c(F)c1 | -0.9 | -6 | 5.3 | 0.8 | 0.7 | 2 | / | 3
C=CCNC(=O)COC(=O)c1ccccc1C(=O)N(C)C1CCCCC1 | -4.6 | 5 | 0.0 | -0.8 | 0.7 | -11 | / | -6
COc1ccc(NC2CCCN(C(=O)c3csc(C)n3)C2)cc1 (stereo not given) | -5.1 | -7 | 1.1 | 4.2 | -0.4 | 1 | / | -1
NC(=NCCc1ccccc1)NS(=O)(=O)c1ccc(F)cc1 | -2.4 | 0 | -1.1 | / | 0.1 | 12 | -2% | -1
O=C(Nc1ccccc1Br)C1CCC(=O)N1Cc1ccccc1Cl (stereo not given) | -0.1 | -3 | -5.7 | / | 0.7 | -9 | -1% | ?
COc1ccc(NC(C)=O)cc1C#N | -3.5 | -2 | 3.2 | -1.7 | 0.3 | -9 | 2% | ?
CCC1CCCCN1CCCNC(=O)CCC(=O)N1CC(C)Oc2ccccc21 (stereo not given) | -1.0 | -6 | -3.5 | -3.4 | -0.8 | -5 | / | 10
CC(=O)NCCC(=O)Nc1nc(-c2ccccc2Cl)cs1 | 3.8 | -3 | 3.2 | -1.4 | 0.3 | -1 | 8% | -1
C[C@H]1CN([C@@H](C)CO)C(=O)c2cccc(NC(=O)c3ccc(-c4nccs4)cc3)c2O[C@@H]1CN(C)C(=O)NC1CCCCC1 | 0.7 | -3 | / | -0.6 | -0.2 | / | / | /
CCOC(=O)c1ccccc1NC(=O)c1cccc2c1C(=O)N(C1CCN(C(=O)OCC)CC1)C2 | 1.7 | 9 | -3.6 | -5.9 | 0.9 | 21 | -3% | -6
O=C(CSc1nnc(CNC(=O)c2ccccc2)o1)Nc1nccs1 | 4.6 | -4 | / | 0.6 | 1.2 | -16 | 8% | /
O=S(=O)(Nn1cnnc1)c1ccc(F)cc1 | 4.0 | 0 | 6.3 | -17 | -0.6 | 17 | 11% | 4
CN(C)Cc1c(O)ccc2c(=O)c(-c3ccc(Cl)cc3)coc12 | -8.9 | -3 | -1.1 | 1.2 | -0.1 | -1 | / | -4
O=C(Nc1ccc(Cl)cc1)NC1CCCC1Cc1ccco1 (stereo not given) | 17* | 2 | -0.4 | / | -0.3 | 26 | -5% | -6
O=C(Cn1c(=O)oc2ccccc21)Nc1nnc(N2CCCCCC2)s1 | -1.1 | 2 | ? | 3.7 | 0.2 | 5 | 4% | 1
CN(C(=O)C1CCCO1)c1nnc(-c2cnccn2)s1 (stereo not given) | -1.6 | -2 | -1.9 | / | -0.8 | -15 | -4% | 26
COC(=O)[C@H](Cc1ccccc1)NC(=O)C1CCN(C(=O)[C@H](C)NS(=O)(=O)c2ccc(C)cc2)CC1 | -3.8 | -2 | -0.8 | -1.3 | -0.6 | -6 | -4% | -2
COc1ccccc1-n1c(COc2ccccc2-c2ccccc2)nnc1SCC(=O)c1c(N)n(C)c(=O)n(C)c1=O | -5.5 | 5 | -2.6 | ? | 0.2 | 30 | -2% | 9
CCN1CCN(C2CCCCC2NS(=O)(=O)c2ccccc2)CC1 (stereo not given) | 0.4 | -6 | 1.4 | -7.0 | 1.0 | 8 | 1% | -23
CCc1[nH]nc2c1C(C(C)C)C(C#N)=C(N)O2 (stereo not given) | 4.3 | -2 | -1.4 | / | 0.9 | -13 | 7% | -3
Cc1ccccc1CN(c1ccc(C(=O)N2CCc3ccccc3C2)cc1)S(C)(=O)=O | 0.9 | 17 | 0.4 | / | 0.2 | 23 | 3% | 38
Cc1cc(CNC(=O)[C@H]2C[C@@H]2[C@H](NP(=O)(c2ccccc2)c2ccccc2)c2ccccc2)nn1C | 24* | -1 | / | / | 0.2 | / | 0% | /
CCOC(=O)Nc1ccc(S(=O)(=O)Nc2nc(C)cc(C)n2)cc1 | 1.2 | -7 | -2.7 | -61 | 0.0 | -9 | 28% | -18
O=C(NCCc1ccc(Cl)cc1)c1cc(S(=O)(=O)N2CCCCC2)c[nH]1 | 0.1 | -1 | 0.7 | / | -0.1 | 4 | / | 6
C=CCn1c(N(C)C)nc2c1c(=O)[nH]c(=O)n2C | 0.7 | -2 | -5.5 | 0.2 | 0.2 | -7 | / | -1
COC(=O)CCc1c(C)nn(-c2ccccc2)c1C | -1.9 | -4 | -6.5 | / | 0.0 | -16 | 1% | -14
O=C(CCl)Nc1ccc(S(=O)(=O)Nc2nccs2)cc1 | 3.3 | -9 | 2.6 | -5.1 | 0.9 | -19 | -5% | -3
CCOC(=O)[C@@H]1[C@H]2COc3cc(OC)ccc3[C@H]2N2C(=O)N(c3ccc(C(F)(F)F)cc3)C(=O)[C@]12C | -4.9 | 108* | / | -3.7 | -2.4 | / | / | /
CCN1C(=O)[C@H]2[C@@H](c3ccc(-c4cccc(Cl)c4)c(OC)c3)N[C@@](C)(C(=O)OC)[C@H]2C1=O | -1.7 | / | 0.9 | 5.5 | 1.3 | 5 | / | 12
c1cc2c3c(cccc3c1)NC1(CCCCC1)N2 | -3.3 | / | 2.2 | 1.6 | 1.1 | 36 | 10% | -2
O=C(CSc1nnc(-c2ccncc2)o1)Nc1cc(Cl)ccc1C(=O)O | -6.7 | 1 | / | -9.9 | 0.9 | / | 7% | /
COCCn1c(SCC(=O)Nc2ncc(C)s2)nc2sc3c(c2c1=O)CCC3 | / | / | -1.9 | / | / | 15 | 7% | 12
COC(=O)CN1C(c2cccc(Cl)c2)=Nc2ccc(Cl)cc2C1c1ccccc1 (stereo not given) | -0.4 | 3 | ? | 5.7 | -0.9 | 44 | 13% | -8
CC(c1ccc(C(C)(C)C)cc1)S(=O)CC(O)CO (stereo not given) | 2.9 | -7 | 4.5 | / | -0.3 | 14 | -3% | -5
CCn1c(NC(=S)Nc2ccccc2)nc2ccccc21 | 1.6 | / | 0.4 | / | -2.2 | 65* | -88% | 6
CC(Sc1ccc(S(=O)(=O)N2CCOCC2)cc1[N+](=O)[O-])C(=O)O (stereo not given) | -1.0 | -11 | -1.4 | / | 0.0 | 0 | / | -9
CCOc1ccc(C2/C(=C(/O)c3ccc(F)cc3)C(=O)C(=O)N2CCCN(C)C)cc1 (stereo not given) | 3.6 | -8 | 7.1 | / | -0.6 | -5 | -7% | 2
O=C(Cc1ccccc1)N/N=C/c1ccccn1 | -6.1 | -3 | 0.4 | / | 0.6 | -7 | / | -5
CC(C)(C#CC(O)(c1ccccc1)c1ccccc1)N1CCCC1 | -1.9 | 0 | -0.3 | 1.4 | 1.1 | 2 | / | -8
COc1cccc(/C=N/n2c(SC)nnc2-c2ccccc2)c1OC | 7.5 | 4 | 0.8 | / | -0.5 | 8 | 2% | 4
CCOC(=O)c1nnn(-c2nonc2N)c1-c1ccc(Cl)cc1 | -0.3 | -4 | 3.9 | -0.8 | -0.6 | -9 | / | 3
CCN1CCN(c2c(Cl)cccc2NC(=O)c2ccco2)CC1 | 1.0 | / | -2.9 | / | 0.6 | 24 | 5% | -12
O=C(Nc1ccc(Cl)c(S(=O)(=O)Nc2ccccc2Cl)c1)c1cccs1 | -2.4 | -4 | -1.3 | / | -1.3 | 7 | -1% | -1
Cc1ccc(NC(=O)Cn2nc(C)c3ccccc3c2=O)c(C)c1 | 0.9 | -8 | 6.6 | / | 0.6 | 5 | ? | -26
NC(=O)c1ccc(C(F)(F)F)n(Cc2cccc(Cl)c2)c1=O | 0.1 | 0 | 1.6 | / | 0.1 | 7 | 22% | -12
CCn1c(=S)sc2c(=O)n(CC(=O)Nc3ccc(OC)c(Cl)c3)c(C)nc21 | 3.0 | -5 | 1.3 | 1.5 | 0.2 | -4 | / | 0
Cc1cc(-c2nnc(SCC(=O)Nc3ccc(C(F)(F)F)cc3)n2C)no1 | 2.2 | / | -0.9 | -2.0 | 1.3 | 32 | 8% | -4
CCOc1ccc(C(=O)OC(C)CN2CCCCC2)cc1 (stereo not given) | 0.8 | -1 | -1.1 | 3.4 | 1.1 | -8 | / | -3
CCOC(=O)c1csc(NC(=O)c2ccc(S(=O)(=O)N(CC)CC)cc2)n1 | 0.8 | -3 | 5.2 | / | 0.2 | -18 | / | -6
CCOC(=O)c1c2ccc(OCC(=O)N/N=C/c3ccc(C)cc3)cc2n2ccccc12 | 0.3 | 62 | 29* | / | 35* | -15 | 3% | 31
Cc1cc(NC(=O)CSc2nnc(COc3cccc(C)c3C)n2C)no1 | -1.2 | -2 | 0.2 | / | 0.3 | -12 | -1% | 1
COc1ccc(NC(=O)Cc2nnc(SCC(=O)Nc3cc(C)ccc3OC)n2C)cc1 | -0.8 | -5 | 2.1 | / | -0.3 | 5 | 3% | 5
C/C(=N\NC(=O)c1cccnc1)c1ccc(-c2ccccc2)cc1 | -2.1 | 0 | 0.8 | 1.2 | 0.1 | -2 | -10% | 2
CCN(CC(=O)Nc1c(F)cccc1F)C(=O)c1ccc(Sc2nncn2C)c([N+](=O)[O-])c1 | 4.2 | 0 | 7.8 | -1.7 | 0.2 | 2 | -3% | -1
CC1(C)C/C(=C(/C#N)C(N)=O)CCO1 | -0.7 | 6 | 3.7 | / | 0.3 | -11 | 81µM* | -5
CCN(CC)S(=O)(=O)c1ccc(N2CCOCC2)c(NC(=O)c2ccc(N3CCCC3=O)cc2)c1 | -2.6 | 6 | -1.8 | 3.8 | 0.4 | 20 | / | -3
Cc1[nH]n(C)c(=O)c1[N+](=O)[O-] | -0.6 | 1 | 6.6 | 1.2 | -0.5 | -10 | -6% | 2
O=C(NCCSc1c[nH]c2ccccc12)c1c(F)cccc1F | -1.1 | 7 | -3.2 | 4.8 | -0.6 | -19 | / | 7
O=c1c2[nH]c3ccc(F)cc3c2ncn1C1CCCCC1 | 0.2 | 0 | -2.3 | / | -0.6 | 22 | 1% | -2
COCCCNC(=O)c1cc(=O)n(Cc2ccc(Cl)cc2)c2ccccc12 | -4.9 | -1 | 2.9 | 1.0 | 1.3 | 0 | -2% | -4
The listing continues.
SMILES | LANA-H2A inh | Beta cell apopt | RanGTP-Imp inh | MLL AF4-AF9 inh | Bfl-1 A1 inh | T cruzi inh | Vif A3G | Calb FLC
O=C(Nc1ccccc1C(=O)O)c1cccc(NC(=O)c2ccc(Br)o2)c1 | 2.3 | -1 | 2.9 | / | -0.1 | -5 | 9%&5% | 23
Nc1nn(-c2ccccc2)c(N)c1N=Nc1ccc2c(c1)OCO2 | 1.1 | 10 | -0.2 | / | -5.0 | 21 | / | 6
C[C@@H]1NC(=O)/C(=C\c2ccccc2Br)NC1=O | -0.1 | / | 2.1 | 1.0 | 0.7 | -10 | 1% | -12
CCCCNC(=O)Nc1c(C)cc(SC#N)cc1C | 3.8 | 4 | 1.8 | -4.6 | 0.7 | -2 | -6% | -14
Cc1cccc(Nc2ccc(S(=O)(=O)N3CCOCC3)cc2[N+](=O)[O-])c1 | -5.2 | 7 | / | 23 | -1.1 | / | 0% | /
Cc1ccccc1C(=O)NC1CCS(=O)(=O)C1 (stereo not given) | 1.7 | / | 6.0 | / | -0.3 | -5 | -1% | 5
N#Cc1c(NC(=O)CSc2nc3ccccc3s2)sc2c1CCCC2 | -2.1 | -2 | 0.3 | / | -1.1 | -4 | / | 3
